Vaccinia inh – blocks a specific stage of Vaccinia orthopoxvirus infection; Vaccinia-infected cells, mCherry/Venus stage reporter fluorescence; hits give low values; some inactives read as strong as hits; activity change (mCherry), % (no concentration beside the values); actives 0.01% (n = 89,000); AID 1053133;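 active = mCherry past -33% and 40 or more points under the early reporter, replicates agreeing; inconclusive = past -33% without that gap or agreement; tested in A549 cells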;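 note: scaled between vehicle wells and reference inhibitor wells; 23 nL library stock went into each well; one replicate is shown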
Vaccinia inh Venus – further read-out of Vaccinia inh, marked with its call; activity change (Venus), %; measured here: Venus reporter, other viral stage;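 negative = less Venus signal; first of two replicates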
The depositor's hits bear a star; ? = inconclusive; · = not tested or not shown. Not all compounds are listed (hit frequency here may not be typical).

compound	Vaccinia inh	Vaccinia inh Venus
C[C@@H]1CN([C@@H](C)CO)C(=O)c2cc(NS(=O)(=O)c3cccs3)ccc2O[C@@H](C)CCCCO[C@H]1CN(C)C(=O)Nc1cccc2ccccc12	25.9	20.6
O=C(C[C@H]1C=C[C@@H](NC(=O)CC2CC2)[C@@H](CO)O1)NCc1ccccc1	8.0	5.4
CCNC(=O)[C@@H]1[C@@H](CO)[C@@H]2Cn3c(ccc(C4=CCCCC4)c3=O)[C@@H]2N1C(=O)CC1CC1	2.8	2.9
COc1ccc(S(=O)(=O)N(C)C[C@@H]2Oc3ccc(NC(=O)NC4CCCCC4)cc3C(=O)N([C@@H](C)CO)C[C@H]2C)cc1	6.9	11.7
C[C@H](CO)N1C[C@H](C)[C@H](CN(C)S(C)(=O)=O)Oc2c(NS(=O)(=O)c3ccccc3)cccc2C1=O	8.6	4.9
COc1ccc(-c2ccc3c(c2)[C@@H]2[C@@H](CCN2C(=O)C2CCCC2)[C@H](CO)N3C)cc1	?	·
C[C@H](CO)N1C[C@H](C)[C@@H](CN(C)C(=O)c2ccccc2)Oc2cc(C3=CCCC3)ccc2S1(=O)=O	25.0	18.9
O=C(C[C@@H]1CC[C@H]2[C@@H](COC[C@@H](O)CN2C(=O)Nc2ccc(C(F)(F)F)cc2)O1)NCCc1ccncc1	-7.7	-1.2
Cc1noc(C)c1NC(=O)N(C)C[C@H]1Oc2ccc(NC(=O)NC(C)C)cc2C(=O)N([C@@H](C)CO)C[C@H]1C	6.6	12.0
CC(=O)[C@@]12O[C@]3(COC[C@H](c4ccccc4)N3C1=O)[C@@H]1C(=O)N(c3ccccc3)C(=O)[C@@H]12	-0.4	3.7
COCC(=O)N1CC2(C1)[C@H](c1ccc(C3=CCCC3)cc1)[C@@H](CO)N2C(=O)COC	9.7	5.9
CO[C@H]1CN(C)C(=O)c2cc(NC(=O)NC3CCCCC3)ccc2OC[C@H](C)N(CC2CC2)C[C@@H]1C	-21.2	-13.2
O=C(Nc1ccccc1F)N[C@H]1CC[C@@H](CC(=O)N2CCCCC2)O[C@@H]1CO	2.6	0.5
O=C(Nc1ccc(C(F)(F)F)cc1)N[C@H]1CC[C@@H](CCNC(=O)c2ccccc2F)O[C@@H]1CO	-15.2	-10.0
C[C@]12CCC3C4(C=CC5(C=C4C(=O)c4ccc(F)c(F)c4)C[C@@H](O)CC[C@]35C)C1CC[C@@]2(O)CN1CCC(C(N)=O)CC1 (stereo partly drawn)	-10.7	-3.3
C[C@H](CO)N1C[C@H](C)[C@H](CN(C)S(C)(=O)=O)Oc2ccc(NC(=O)Nc3cccc4ccccc34)cc2C1=O	27.3	10.2
C[C@@H]1CN([C@@H](C)CO)C(=O)c2c(c3ccccc3n2C)-c2ccccc2CO[C@@H]1CN(C)S(=O)(=O)CC(F)(F)F	-10.9	-20.0
O=C(C[C@@H]1C[C@H]2c3cc(NC(=O)C4CCOCC4)ccc3O[C@H]2[C@H](CO)O1)NCc1ccncc1	2.2	4.5
COc1cccc(-c2ccc([C@H]3[C@@H](CO)N(C(=O)c4ccccn4)[C@H]3C#N)cc2)c1	?	·
O=C(NC1CCC1)[C@H]1[C@H](CO)[C@H]2Cn3c(ccc(-c4ccncc4)c3=O)[C@H]2N1CC1CC1	13.8	18.5
COc1ccc(S(=O)(=O)Nc2ccc3c(c2)C(=O)N([C@H](C)CO)C[C@H](C)[C@@H](CN(C)Cc2ccc(Cl)c(Cl)c2)O3)cc1	-23.3	-19.6
CCC(=O)N1[C@H](CO)[C@@H]2c3ccccc3N(C(=O)c3cnccn3)C[C@@H]21	10.4	11.4
CCCNC(=O)[C@H]1[C@H](CO)[C@H]2Cn3c(ccc(-c4ccc(OC)cc4)c3=O)[C@@H]1N2CC	-7.1	-7.4
C[C@H]1CCCCO[C@H](CN(C)C)[C@@H](C)CN([C@@H](C)CO)C(=O)c2cc(NC(=O)CCC(F)(F)F)ccc2O1	-6.0	-1.5
O=C(C[C@H]1CC[C@H]2[C@@H](COC[C@@H](O)CN2C(=O)C2CCCC2)O1)NCc1ccncc1	16.7	2.3
C[C@@H]1CN([C@H](C)CO)C(=O)c2cc(NC(=O)NC3CCCCC3)ccc2O[C@H]1CN(C)S(=O)(=O)c1ccc(Cl)cc1	11.2	2.1
CCCN1[C@@H]2c3ccc(/C=C/c4ccccc4)c(=O)n3C[C@@H]2[C@@H](CO)[C@@H]1C(=O)N(C)C	-4.0	-1.7
C[C@@H]1CCCCO[C@@H](CN(C)C(=O)Nc2ccccc2)[C@@H](C)CN([C@@H](C)CO)C(=O)c2cc(NC(=O)Cc3ccccc3)ccc2O1	-2.9	-3.9
COc1ccc(S(=O)(=O)N(C)C[C@@H]2Oc3ccc(NC(=O)Nc4ccc5c(c4)OCO5)cc3C(=O)N([C@@H](C)CO)C[C@@H]2C)cc1	5.4	5.4
C[C@H]1CN([C@@H](C)CO)C(=O)c2cccc(NS(=O)(=O)c3cccs3)c2O[C@@H]1CN(C)Cc1ccc(Cl)c(Cl)c1	-8.8	-6.5

More compounds:
Screens in order – Vaccinia inh | Vaccinia inh Venus
C[C@@H]1CN([C@H](C)CO)C(=O)c2cc(C#CC3(O)CCCC3)cnc2O[C@@H]1CN(C)C(=O)C1CCCCC1
    6.1 | -0.3
COCCNC(=O)C[C@H]1CC[C@@H]2[C@H](COc3ccc(NC(=O)C4CCOCC4)cc3C(=O)N2C)O1
    8.7 | 4.2
COc1ccc(NC(=O)N(C)C[C@H]2Oc3ccc(NC(=O)Nc4cccc5ccccc45)cc3CC(=O)N([C@H](C)CO)C[C@@H]2C)cc1
    13.4 | 10.0
C[C@@H]1CN([C@H](C)CO)C(=O)c2cc(NC(=O)C3CC3)ccc2O[C@H]1CN(C)S(=O)(=O)c1cn(C)cn1
    54.6 | 31.4
O=C([C@@H]1[C@@H](CO)[C@@H]2Cn3c(cccc3=O)[C@H]1N2CC1CCCC1)N1CCc2ccccc2C1
    9.6 | 12.3
Cc1ccc(S(=O)(=O)Nc2ccc3c(c2)C(=O)N([C@@H](C)CO)C[C@H](C)[C@@H](CN(C)S(=O)(=O)c2c(C)noc2C)OCCCC[C@H](C)O3)cc1
    ? | ·
C[C@@H]1CN([C@@H](C)CO)C(=O)Cc2cc(NC(=O)c3ccncc3)ccc2O[C@H]1CN(C)C
    8.1 | 4.8
Cc1ccccc1-c1cnc2c(c1)C(=O)N([C@H](C)CO)C[C@H](C)[C@H](CN(C)C(=O)c1ccccc1)O2
    -0.7 | -6.2
Cc1ccc(S(=O)(=O)Nc2ccc3c(c2)C(=O)N([C@H](C)CO)C[C@@H](C)[C@@H](CN(C)C(=O)NC2CCCCC2)O3)cc1
    -20.6 | -30.7
C[C@@H]1CN([C@@H](C)CO)C(=O)Cc2cc(NC(=O)Nc3ccc4c(c3)OCO4)ccc2O[C@@H]1CN(C)C
    3.9 | 0.7
Cc1noc(C)c1NC(=O)N(C)C[C@H]1Oc2ccc(NS(=O)(=O)c3c(C)noc3C)cc2CC(=O)N([C@H](C)CO)C[C@H]1C
    10.5 | 7.5
C[C@@H]1CN([C@@H](C)CO)C(=O)c2cc(NS(=O)(=O)c3cccs3)ccc2O[C@@H]1CN(C)C
    1.8 | 12.9
C[C@H](CO)N1C[C@H](C)[C@H](CN(C)C(=O)Nc2ccc(C(F)(F)F)cc2)Oc2c(cccc2N(C)C)C1=O
    -6.5 | -3.5
CS(=O)(=O)Nc1ccc2c(c1)[C@H]1C[C@H](CC(=O)NCc3ccc(Cl)cc3)O[C@H](CO)[C@H]1O2
    5.3 | 5.2
C[C@@H]1CN([C@H](C)CO)C(=O)c2cc(NC(=O)CCC(F)(F)F)ccc2O[C@@H](C)CCCCO[C@@H]1CN(C)S(=O)(=O)c1ccc(F)cc1
    -10.7 | -11.0

7 compounds picked at random from the list so far:
Screens in order – Vaccinia inh | Vaccinia inh Venus
C[C@@H]1CN([C@@H](C)CO)C(=O)c2cc(NS(=O)(=O)c3cccs3)ccc2O[C@@H]1CN(C)C
    1.8 | 12.9
C[C@@H]1CN([C@@H](C)CO)C(=O)Cc2cc(NC(=O)c3ccncc3)ccc2O[C@H]1CN(C)C
    8.1 | 4.8
COCCNC(=O)C[C@H]1CC[C@@H]2[C@H](COc3ccc(NC(=O)C4CCOCC4)cc3C(=O)N2C)O1
    8.7 | 4.2
C[C@@H]1CN([C@H](C)CO)C(=O)c2cc(NC(=O)CCC(F)(F)F)ccc2O[C@@H](C)CCCCO[C@@H]1CN(C)S(=O)(=O)c1ccc(F)cc1
    -10.7 | -11.0
C[C@@H]1CN([C@H](C)CO)C(=O)c2cc(NC(=O)C3CC3)ccc2O[C@H]1CN(C)S(=O)(=O)c1cn(C)cn1
    54.6 | 31.4
COc1ccc(NC(=O)N(C)C[C@H]2Oc3ccc(NC(=O)Nc4cccc5ccccc45)cc3CC(=O)N([C@H](C)CO)C[C@@H]2C)cc1
    13.4 | 10.0
C[C@@H]1CN([C@H](C)CO)C(=O)c2cc(C#CC3(O)CCCC3)cnc2O[C@@H]1CN(C)C(=O)C1CCCCC1
    6.1 | -0.3

Other records follow:
Screens in order – Vaccinia inh | Vaccinia inh Venus
CO[C@H]1CN(C)C(=O)c2cc(NS(C)(=O)=O)ccc2OC[C@H](C)N(CC2CCOCC2)C[C@@H]1C
    5.4 | -0.1
C[C@@H]1CN([C@@H](C)CO)S(=O)(=O)c2ccc(C#Cc3ccccc3)cc2O[C@H]1CN(C)C(=O)Cc1ccccn1
    ? | ·
CCNC(=O)C[C@H]1CC[C@@H]2[C@H](COC[C@@H](O)CN2C(=O)Nc2ccc(Cl)c(Cl)c2)O1
    -5.5 | -6.8
O=C(C[C@H]1CC[C@H]2[C@@H](COC[C@H](O)CN2Cc2ccc(F)cc2)O1)NCc1ccccc1Cl
    -27.6 | -19.1
CCCN1C[C@@H](C)[C@@H](OC)CN(C)C(=O)c2cc(NS(=O)(=O)c3cn(C)cn3)ccc2OC[C@@H]1C
    14.7 | 12.0
C[C@@H]1CCCCO[C@@H](CN(C)CC2CC2)[C@@H](C)CN([C@H](C)CO)C(=O)c2cc(NC(=O)CCC(F)(F)F)ccc2O1
    20.4 | 7.6
C[C@H](CO)N1C[C@H](C)[C@H](CN(C)S(=O)(=O)c2cccs2)Oc2ccc(NS(=O)(=O)c3ccccc3)cc2C1=O
    -23.1 | -11.9
CO[C@H](CN(C)C(=O)c1ccc2c(c1)OCO2)[C@@H](C)CN([C@H](C)CO)S(=O)(=O)c1ccc(Cl)cc1
    -6.1 | 1.7
C[C@H]1CN([C@@H](C)CO)C(=O)Cc2cc(NC(=O)Nc3cccc4ccccc34)ccc2O[C@H]1CN(C)CC1CC1
    2.6 | 6.0
CCCN1[C@@H]2c3ccc(C4=CCCCC4)c(=O)n3C[C@H]1[C@H](CO)[C@H]2C(=O)N1CCOCC1
    4.2 | 0.3
COc1ccccc1CN1[C@@H]2c3cccc(=O)n3C[C@@H]2[C@@H](CO)[C@@H]1C(=O)NCCc1ccncc1
    11.4 | 4.0
CCNC(=O)[C@H]1[C@H](CO)[C@H]2Cn3c(cccc3=O)[C@H]2N1Cc1ccccc1Cl
    -1.3 | 3.3
COc1ccc(CN(C)C[C@H]2Oc3ccc(NS(=O)(=O)c4ccc(F)cc4)cc3CC(=O)N([C@@H](C)CO)C[C@@H]2C)cc1
    -9.3 | -7.7
CC(C)NC(=O)N(C)C[C@H]1Oc2ncc(C#Cc3ccccc3F)cc2C(=O)N([C@H](C)CO)C[C@H]1C
    -0.9 | 3.5
COc1ccc(CN(C)C[C@H]2OCCCC[C@H](C)Oc3ccc(NS(=O)(=O)c4cn(C)cn4)cc3C(=O)N([C@@H](C)CO)C[C@H]2C)cc1
    12.0 | 5.0

(more compounds)
Screens in order – Vaccinia inh | Vaccinia inh Venus
COc1ccccc1CN(C)C[C@@H]1OCc2cn(nn2)CCCC(=O)N([C@@H](C)CO)C[C@@H]1C
    8.9 | 6.3
COCC(=O)Nc1ccc2c(c1)[C@H]1C[C@@H](CC(=O)NCc3ccccc3)O[C@@H](CO)[C@H]1O2
    -0.1 | -4.4
CN(C)Cc1cn(CC[C@@H]2CC[C@@H](NC(=O)Cc3cccnc3)[C@@H](CO)O2)nn1
    10.1 | 6.2
Cc1noc(C)c1S(=O)(=O)Nc1ccc2c(c1)C(=O)N([C@H](C)CO)C[C@H](C)[C@@H](CN(C)C(=O)Nc1ccc(C(F)(F)F)cc1)OCCCC[C@@H](C)O2
    -29.7 | -21.5
CO[C@@H](CN(C)C(=O)c1ccccc1F)[C@@H](C)CN([C@@H](C)CO)S(=O)(=O)c1ccccc1
    15.8 | 14.0
COc1ccccc1-c1cnc2c(c1)C(=O)N([C@H](C)CO)C[C@@H](C)[C@@H](CN(C)C)O2
    10.0 | -7.5
Cc1ccc(S(=O)(=O)N2CC[C@H]3[C@H](CO)Nc4ccc(-c5cccc(C(=O)N(C)C)c5)cc4[C@H]32)cc1
    -25.1 | -23.4
O=C(Cc1ccccn1)NCC[C@H]1CC[C@@H](NC(=O)Nc2ccc(F)cc2)[C@@H](CO)O1
    -3.0 | -2.0
CNC[C@@H]1Oc2ccc(NC(=O)NC(C)C)cc2C(=O)N([C@H](C)CO)C[C@H]1C
    6.3 | 0.6
CN(C)CC(=O)N1[C@H](CO)[C@@H](c2ccccc2)C12CN(C(=O)c1cccc(F)c1)C2
    -3.6 | -1.3
CS(=O)(=O)N1CC2(C1)[C@H](c1ccccc1)[C@H](CO)N2Cc1ccccn1
    -6.8 | 6.7
C[C@@H]1CN([C@@H](C)CO)C(=O)c2cc(NC(=O)Cn3cnnn3)ccc2O[C@H]1CN(C)S(=O)(=O)c1ccccc1
    9.6 | 7.2

Screens deposited in PubChem by Broad Institute.
